# Menin MLL FP FL – menin-MLL binding inhibition, fluorescein peptide | 290,000 tested, under 10 active | Fluorescence polarization, fluorescein-MLL peptide displacement from menin | FP activity change, % at 61.4 µM; inconclusive = falling polarisation curve, or a change in total fluorescence; inactive = total fluorescence flat and polarisation flat or rising; no compound was filed as active; the % refers to the polarisation; negative = inhibition;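 also: % of control where 0% means no effect; inhibitors lower the polarisation; unlabelled MLL peptide was the positive control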
# ClpP mod – qHTS Assay for Activators of ClpP | ATP-dependent Clp protease proteolytic subunit (Bacillus subtilis (strain 168)), P80244 | purified B. subtilis ClpP, FRET peptide cleavage, 20 min | Potency, µM (doses to about 57.5 µM), for inactives: at the highest dose activity change, negative = active | 340,000 compounds, 1.9% hits; active = well fitted falling curve with a large enough effect; inconclusive = small, poorly fitted or top-dose-only effect; inactive = no such curve, though single readings can be large or run the other way; also: potency is read from the fitted curve at half-maximal effect; the source files actives as falling curves though it sought activators and does not explain the sign; nearly all actives have a fitted effect of over 65% in size; many hits overshoot -100%
# Target sequence (P80244 whole entry, looked up): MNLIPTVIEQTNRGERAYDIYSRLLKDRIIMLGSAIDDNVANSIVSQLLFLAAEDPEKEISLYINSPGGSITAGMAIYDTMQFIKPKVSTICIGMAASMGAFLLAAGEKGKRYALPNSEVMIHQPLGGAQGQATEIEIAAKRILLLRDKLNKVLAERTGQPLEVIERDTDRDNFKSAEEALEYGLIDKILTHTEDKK
#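 Buffer: 100 mM Tris/HCl pH8, 100 mM KCl, 0.05% low protease BSA, 2.5% glycerol, 0.01% Tween-20. ClpP 10 microg/mL final; 20 min RT; delta FRET normalized to ADEP and DMSO controls.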
# D2 agonist – human D2 receptor agonism in beta-arrestin assay. P14416. DiscoveRx PathHunter D2 beta-arrestin, luminescence, 90 min; 100% = 57 uM dopamine signal. activation, % (test concentration not listed). 360,000 compounds, 0.084% hits. AID 624465; in the data active = activation above about 40%; inconclusive = about 15% to 40%; inactive = below about 15%; also: compound concentration not given in the record; the text of the record calls up to 30% inactive
# Target sequence (P14416 whole entry, looked up): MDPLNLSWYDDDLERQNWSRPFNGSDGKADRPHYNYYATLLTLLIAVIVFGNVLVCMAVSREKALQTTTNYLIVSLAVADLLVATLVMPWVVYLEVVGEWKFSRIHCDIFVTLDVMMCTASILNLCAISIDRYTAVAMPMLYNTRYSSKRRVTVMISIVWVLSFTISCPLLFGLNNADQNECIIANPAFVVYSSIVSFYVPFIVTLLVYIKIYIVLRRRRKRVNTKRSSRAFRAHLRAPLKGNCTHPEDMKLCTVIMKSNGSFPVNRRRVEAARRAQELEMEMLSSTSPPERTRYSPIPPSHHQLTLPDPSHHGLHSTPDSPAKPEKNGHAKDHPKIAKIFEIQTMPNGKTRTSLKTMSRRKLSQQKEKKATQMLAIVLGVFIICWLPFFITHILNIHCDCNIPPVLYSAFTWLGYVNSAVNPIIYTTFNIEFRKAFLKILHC
#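 Agonist mode: compounds alone added to overnight-plated D2 PathHunter cells for 90 min at 37 C, with 57 uM final dopamine (EC100) defining full response. Beta-arrestin recruitment detected by chemiluminescent reagent, read after 1 h at ambient temperature.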
# PINK1 expr mod – modulators of PINK1 expression; PINK1 immunofluorescence, high-content cytometry, 24 h; Potency, µM (titrated, usually from 76.6 µM), for inactives: top-dose activation (PINK1 increase), most hits filed as activators; 410,000 compounds, 0.2% hits; active = well fitted activation curve with a large enough effect; inconclusive = small, poorly fitted or top-dose-only effect; inactive = flat fitted curve, though single readings scatter; cell line not stated here;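 also: potency is read from the fitted curve at half-maximal effect; % of control where 0% means no effect; nearly all actives have a fitted effect of over 65% in size; a mitochondrial uncoupler was the plate control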
#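 Cells are seeded, rested 12 hours, then given compound at five concentrations or DMSO for 24 hours. After fixation, blocking and antibody staining, PINK1 amount and mitochondrial localization are scored; CCCP serves as control.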
# gsp ag – agonists of gsp mutant (McCune-Albright syndrome). gsp mutant cells, cAMP HTRF, 30 min; control for the full effect not named in the record. Potency, µM (titrated, usually from 76.9 µM), without a hit: top-dose activation (cAMP increase), usual class: activators. 340,000 compounds, 0.13% hits. AID 624287; active = well fitted activation curve with a large enough effect; inconclusive = small, poorly fitted or top-dose-only effect, or another doubt; inactive = no such curve, though single readings can be large or run the other way; cell line not stated here;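 also: phosphodiesterase inhibitor Ro 20-1724 added with compounds to block cAMP breakdown; potency is read from the fitted curve at half-maximal effect; nearly all actives have a fitted effect of over 60% in size; about a fifth of the inactives were tested at one dose only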
#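 Cells in DMEM/10% FBS with G418 were pretreated with compounds in DMSO plus […] (300 uM stock) for 30 min at 37C. cAMP was measured by HTRF (cAMP-d2 plus anti-cAMP antibody-K) after 30 min at room temperature.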
# gsp antag – antagonists of gsp mutant (McCune-Albright syndrome) | AID 624288 | 340,000 compounds, 0.4% hits | Potency, µM (series often up to 76.9 µM), inactives show at the highest dose activity change, negative = inhibition, usual class: inhibitors | gsp-mutant cells, cAMP HTRF, 30 min; control for the full effect not named in the record; active = falling curve of any shape with a large fitted effect; inconclusive = falling curve, mostly with a smaller effect; inactive = flat or rising curve; cell line not stated here;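 also: intracellular cAMP measured with PDE inhibitor Ro 20-1724 present during compound exposure; potency is read from the fitted curve at half-maximal effect; % is scaled to controls: 0 for no effect and ±100 for the full control effect; nearly all actives have a fitted effect of over 65% in size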
#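 HTRF cAMP read-out (cAMP-d2 plus anti-cAMP antibody-K in lysis buffer, 30 min RT). Before lysis, cells are exposed to compounds with […] for 30 min at 37C in DPBS containing Ca/Mg, BSA and Tween 20.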
# Sfp inh – inhibitors of Bacillus subtilis Sfp phosphopantetheinyl transferase | Q9F4F7 | Biochemical Sfp PPTase activity, qHTS | Potency, µM, without a hit: max response, negative = inhibition, most hits filed as inhibitors | 310,000 compounds, 3.5% hits | AID 1490; active = well fitted inhibition curve with a large enough effect; inconclusive = small, poorly fitted or top-dose-only effect, or another doubt; inactive = no such curve, though single readings can be large or run the other way;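 also: the enzyme is Sfp with the accession as filed and its product quenches rhodamine fluorescence; potency is read from the fitted curve at half-maximal effect; 0% = enzyme reaction without inhibitor and -100% = no enzyme wells; top concentration of the series not given in the record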
#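 Step 1, compound plus 15 nM Sfp-PPTase, 15 min, room temperature. Step 2, add rhodamine-CoA (5 uM) and BHQ-2-YbbR (12.5 uM). Step 3, read 525/598 nm fluorescence at 0 and 30 min.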
# The depositor's hits bear a star; ? = inconclusive; / = no result given; & = joins results of further samples; [ ] = another dose, or the depositor's remark.
SMILES,Menin MLL FP FL,ClpP mod,D2 agonist,PINK1 expr mod,gsp ag,gsp antag,Sfp inh
CC1Cc2ccccc2N1C(=O)CN1CCC(n2nnc3cc(C(F)(F)F)ccc32)CC1 (stereo unspecified),3.0,-1.5%,0.0,-1.5%,-50%[inhibitor],?,9%
c1ccc(-c2nc(NC3CC3)nc(-n3ccnc3)n2)cc1,1.5,0.4%,2.1,4.8%,?,11%,14%
CCOC(=O)c1c(NC(=O)CCNCc2ccco2)sc2c1CCC2,2.2,/,-0.4,?,-11%[15.4 µM],-2%,?
O=S(=O)(NCC(c1cccnc1)N1CCN(c2ccccc2)CC1)c1cccs1 (stereo unspecified),2.2,3.0%,9.3,-0.4%,-77%[inhibitor],-6%,-8%
COc1nc(N)nc2nc[nH]c12,0.7,-0.4%,3.9,0.0%,/,9%,17%
CC1CC(OCC(O)CN2CCCCC2C)CC(C)(C)C1 (stereo unspecified),-9.2,-1.2%,-0.9,-0.4%,-1%[15.4 µM],8%,-2%
N#Cc1c[nH]n2c(=O)cc(Cc3ccccc3)nc12,-2.5,?,1.0,-3.6%[38.3 µM],-3%,7%,15%
CCC1CCCCN1C(=O)CSc1nc2c(c(=O)n1C)SC(C)C2 (stereo unspecified),-0.8,-1.4%,-0.8,-1.4%,-1%,-6%,8%
CCCCn1cc(S(=O)(=O)c2ccccc2)c(=O)c2cc(C)ccc21,/,-3.9%,0.2,1.4%,7%,-14%,-2%
COc1ccc(Cl)cc1C(=O)OCC(=O)N(C)CC(=O)Nc1ccc(F)cc1,/,-4.5%,2.2,-0.7%,-9%,8%,/
O=C(COc1ccc2c(c1)OCO2)Nc1cccc(F)c1,6.5,/,3.5,-0.2%,3%,-6%,12%
Cc1[nH]n2c(=O)c3c(nc2c1-c1ccc(Cl)cc1)CCC3,-0.8,25µM*,-1.3,3.0%,1%,-3%,4%
NCCCCCCCCCCNS(=O)(=O)c1cccc2c(Cl)cccc12,26,-3.8%,/,2.0%,/,/,50µM*
Cn1c(=O)[nH]c(=O)c2c1nc1n2CCN1Cc1ccccc1,1.0,-2.4%,1.6,4.7%[38.3 µM],-28%,-1%,7%
Cc1cc(NC(=O)c2ccccc2)no1,1.4,?,-3.2,0.9%,22%[15.4 µM],-11%,17%
CN(C(=O)COC(=O)c1cc2c(s1)CCCCC2)c1ccccc1,/,/,-3.5,-3.2%,-22%[15.4 µM],-11%,/
CC1Cc2cccc3c(O)c(C(=O)c4nn[nH]n4)c(=O)n1c23 (stereo unspecified),-1.7,0.8%,-3.0,-0.2%,-7%[15.4 µM],14%,-32%
O=[N+]([O-])c1ccc(-n2cnc3ccccc32)c([N+](=O)[O-])c1,2.9,/,?,-3.2%,?,-13%,3%
Cc1ccc2nc(C(C)(C)C)c(Cc3ccsc3)n2c1,/,4.8%,-15,2.2%,/,/,/
O=S(=O)(NCc1ccccc1)c1cnc[nH]1,-0.6,-9.4%,-1.0,-2.1%,-40%[inhibitor],5%,3%
Oc1ccccc1C1=NOC(O)(C(F)F)C1 (stereo unspecified),4.1,-1.6%,-5.3,-0.6%,-76%[inhibitor],-4%,-3%
O=C(CCc1ccccc1)N=C1SC2CS(=O)(=O)CC2N1c1cccc(F)c1 (stereo unspecified),0.9,0.1%,-2.9,-0.4%,-21%,-3%,7%
COc1ccc(-n2c(SCC(=O)C(C)(C)C)nc3ccsc3c2=O)cc1,-4.3,/,-5.6,-1.0%,3%[15.4 µM],0%,4%
Nc1c(Cl)ncnc1NCCO,-3.3&-1.8,-0.7%,-4.7,0.6%,28%,14%,15%&10%
C/C(=N\NC(=O)c1c(Cl)c(C)nn1C)c1cccc(NC(=O)C2CCCC2)c1,-1.5,0.2%,-3.6,3.6%,-16%[15.4 µM],-4%,8%
SMILES,Menin MLL FP FL,ClpP mod,D2 agonist,PINK1 expr mod,gsp ag,gsp antag,Sfp inh
O=C1CC(c2ccco2)Cc2c1cnn2-c1nc2ccccc2s1 (stereo unspecified),3.2,-0.1%,-0.8,1.3%,1%,7%,5%
Cc1ccc(CSc2ncnc3c2cnn3-c2ccc(C)cc2)cc1,6.5,-17%,-1.6,1.3%,?,15%,-9%
CCn1c(SCC(=O)Nc2ccc(OC)c(OC)c2)nc2c(c1=O)SCC2,/,2.4%,-4.6,-0.3%,-6%[15.4 µM],3%,6%
O=C(CSc1nnc(-c2cccs2)n1-c1ccccc1)Nc1ccccc1,4.7,?,-3.2,5.9%,?,17%,-4%
CCOC(=O)C1CCN(C=Nc2cc(C)on2)CC1,6.0,0.0%,1.0,-1.0%,-10%,11%,14%
CN1CCN(c2ccc(NC(=O)c3cccs3)cc2)CC1,-0.1,/,-0.4,-0.4%,-4%[15.4 µM],/,22%
O=C(Oc1c(-c2ccccc2)c(=O)n2c3c(cccc13)CC2)c1ccccc1,3.9,/,8.9,-1.9%,-11%,-26%,-30%
Cc1cccc(OCc2nnc(SCC(=O)N3CCCC3)n2C)c1,1.5,-1.9%,-0.6,-3.3%,21%,4%,9%
S=C(Nc1cccnc1)N1CCc2ccccc21,0.8,-3.6%,-1.1,0.3%,1%,2%,4%
Cc1cccc(C(=O)N2CCCN(C(=O)c3cccc(C)c3)CC2)c1,2.3,-2.7%,-1.6,-2.6%,23%,3%,10%
Cc1ccc(SCCC(=O)NC(C)C)cc1,-1.4,0.7%,-3.0,?,11%,9%,0%
O=C(CSc1nc2[nH]ncc2c(=O)[nH]1)Nc1ccccc1F,/,/,-5.0,0.5%,-4%[15.4 µM],10%,/
COc1ccccc1Nc1nc(NCc2ccco2)nc(N)c1[N+](=O)[O-],2.8,/,0.8,1.5%,-4%[15.4 µM],21%,13%
CCCc1cc(=O)oc2cc(O[C@@H]3O[C@H](CO)[C@@H](O)[C@H](O)[C@H]3O)ccc12,-0.7,4.1%,-6.0,-1.0%,-10%,12%,11%
CCN1C(=NCc2ccc(OC)cc2)N[C@@H](c2ccccc2)[C@H](C(=O)OC)[C@H]1C,-1.8,-1.8%,-0.5,0.5%,18%,8%,14%
COc1cc(NS(=O)(=O)c2ccc(NC(=S)NC(=O)c3sc4cc(F)ccc4c3Cl)cc2)nc(OC)n1,3.7,-4.8%,-3.9,1.8%,?,-14%,50µM*
CC1Cc2cc(/C=C3/SC(N4CCC(C(N)=O)CC4)=NC3=O)ccc2O1 (stereo unspecified),2.9,/,-3.7,2.1%,-11%[15.4 µM],-14%,5%
Cc1cccc(N2CCN(C(=O)Cn3cccc3)CC2)c1C,1.6,-1.0%,-3.9,0.8%,-10%,-3%,-4%
NC(=S)N/N=C/c1ccccc1,-0.9,-0.8%,-2.4,-0.2%,-6%,-2%,-20%
CCCCC#Cc1cncc(C(=O)NN)c1,5.6,/,2.1,-0.7%,34%,1%,3%
COCCOC(=O)C1=C(C)NC(=O)NC1c1cn(-c2ccccc2)nc1-c1cccs1 (stereo unspecified),-1.5,-6.0%,-2.5,-0.5%,?,-4%,11%
O=C(NCc1ccc(F)cc1)c1cc(C2CCCCN2C(=O)c2ccc3c(c2)CCO3)on1 (stereo unspecified),/,-11%,-5.8,1.5%,/,/,/
CCOc1ccc(NC(=O)/C(C#N)=C\c2ccc(N3CCCC3)c(C)c2)cc1,/,/,-4.6,?,2%,?,/
COc1ccc(CCNC(=O)Nc2ccc3nc([C@@H]4O[C@H](CO)[C@@H](O)[C@H](O)[C@H]4O)[nH]c3c2)cc1Br,/,-3.9%,8.3,0.2%,/,/,/
O=C(O)CC1COc2ccccc2N1C(=O)c1ccccc1Cl (stereo unspecified),0.4,/,2.1,-1.3%,19%[15.4 µM],/,17%
SMILES,Menin MLL FP FL,ClpP mod,D2 agonist,PINK1 expr mod,gsp ag,gsp antag,Sfp inh
CN(CCCC(=O)Nc1ccccc1F)S(=O)(=O)c1ccc(F)cc1,-0.4,/,1.6,-1.2%,7%[15.4 µM],-2%,6%
CCOc1ccccc1OCCn1nc2ccccc2n1,-6.8,/,0.9,4.4%,11%,6%,2%
COc1ccc(-c2nnc(-c3ccc(Br)o3)o2)cc1OC,0.7,?,-2.0,4.7%[38.3 µM],9%,-5%,5%
Cc1[nH]n2c(=O)c3c(nc2c1-c1ccccc1)CCCC3,1.6,-18%,-2.6,1.0%,?,-5%,6%
COc1cc(C)ccc1N(CCCN1C(=O)c2cccc3cccc(c23)C1=O)C(=O)c1cccs1,-0.7,?,-5.5,-1.1%,-22%,-23%,3%
Cc1cc2c3c(c1)C1(C(=O)N3C(C)(C)CC2C)C(C#N)=C(N)OC2=C1C(=O)CC(C)(C)C2 (stereo unspecified),3.9,0.8%,-5.0,-1.0%,4%,-5%,11%
O=C(O)C1CCCCC1C(=O)NCc1ccccn1 (stereo unspecified),5.9,/,-4.2,-0.3%,-10%[15.4 µM],/,11%
CCC(Oc1ccccc1)C(=O)NC1C(=O)N2C1SC(C)(C)C2C(=O)O (stereo unspecified),0.1&0.3,/,4.3,4.7%,-8%,19%,13%&7%
CCc1ccc(C2(C)SC(NC(C)=O)=NN2C(C)=O)cc1 (stereo unspecified),4.9,-2.7%,-4.5,-1.5%,28%,0%,2%
O=S(=O)(O)c1nc2ccccc2[nH]1,-0.1,-4.8%,-5.0,2.3%,-23%,4%,-1%
CCOCc1nnc(NC(=O)C2CC(=O)N(C3CCCC3)C2)s1 (stereo unspecified),-1.0,/,-3.1,-0.6%,-14%,-22%,-3%
COc1ccc(CCNC(=O)c2cc(S(=O)(=O)N3CCc4ccccc43)ccc2F)cc1OC,/,-1.4%,7.4,0.2%,-1%,/,/
CCCCNC(=O)N(c1c(N)n(Cc2ccccc2)c(=O)[nH]c1=O)C1CCCC1,2.0,-1.1%,-2.6,-0.4%,-29%,5%,3%
Clc1ccc(-c2nnc(SCc3nc4ccccc4[nH]3)o2)c(Cl)c1,2.6,2.5%,0.6,1.5%,8%,-8%,-17%
NC(=O)CNCCC(c1ccccc1)c1ccccc1,-3.6&0.6,0.7%,-4.6,1.0%,/,3%,8%
